Screening results from PubChem.
Resorufin autofl: resorufin region autofluorescence | max dye-equivalent concentration, M | 59,000 tested, 0.04% active | AID 588 | Compound fluorescence, resorufin region 547/598 nm, buffer; active compounds read high; active = above 10 nM dye equivalent; inconclusive = 1 to 10 nM; inactive = 1 nM or less; a few of its hits are not listed in these tables; also: highest value over a series up to 38 µM
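Read-out: intrinsic compound fluorescence at ex 547/em 598 nm after 15 min at RT in pH 8.0 Tris (100 mM). Values expressed as resorufin-equivalent concentration from per-plate standard series.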
A647 autofl: compound fluoresces in the A647 spectral region; Compound fluorescence, A647 channel (570/671 nm), Tris buffer; max dye-equivalent concentration, M; 59,000 tested, under 10 active; active means above 1 µM dye equivalent; inconclusive means 0.1 to 1 µM; inactive means 0.1 µM or less;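 also: values scaled relative to a standard on each plate; highest value over a series up to 38 µM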
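Each compound's intrinsic fluorescence at 570 nm excitation and 671 nm emission is measured across its concentration series in 100 mM Tris, pH 8.0, after 15 min at room temperature, and reported relative to an A647 curve.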
AID923: qHTS Assay for Allosteric/Competitive Inhibitors of Caspase-1: Spectroscopic Profiling in AFC Spectral Region | compound fluorescence, AFC spectral region (405/520 nm); almost no hit is shown here | Potency, µM (series often up to 57.5 µM), for inactives: at the top dose fluorescence increase, actives largely listed as activators | 75,000 tested, 1.1% active | AID 923, 2007; active = well fitted activation curve with a large enough effect; inconclusive = small, poorly fitted or top-dose-only effect;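 also: potency is read from the fitted curve at half-maximal effect; 0% is about no effect; scaled to a free AFC standard on each plate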
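Titrations up to 57 uM read every 20 sec for 3 min (405/520 nm) with 50 nM caspase 1 and 5 uM Ac-WEHD-AFC, pH 7.5 HEPES buffer. Fluorescence-vs-time intercept gave baseline, scaled against on-plate AFC standard.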
A488 fluor: compound fluoresces in the A488 spectral region; compound autofluorescence, A488 spectral region, dye equivalency; active compounds read high; max dye equivalency, M; 59,000 tested, 0.1% active; AID 591; active = above 10 nM dye equivalent; inconclusive = 1 to 10 nM; inactive = 1 nM or less; about half of its hits are not listed in these tables;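 also: highest value over a series up to 38 µM; compound alone in buffer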
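Readout is A488 dye-equivalent concentration, calibrated by a per-plate six-point Alexa 488 series. Compounds in 100 mM Tris buffer pH 8.0 were incubated 15 min at room temperature. Plates were imaged using 480 nm excitation/540 nm emission filters.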
TSHR ag: TSH receptor (human) agonism. Potency, µM (series often up to 57.1 µM), for inactives: at the highest dose activation, actives largely listed as activators. AID 926. P16473. 73,000 tested, 0.48% active. HEK293-CNG-TSHR cells (CNG channel as cAMP sensor), membrane potential dye, cAMP; active = well fitted activation curve of enough size with the parental cells flat; inconclusive = any curve in the parental cells; inactive = parental cells flat and receptor cells flat or falling; also: potency is read from the fitted curve at half-maximal effect; % of control where 0% means no effect; weak receptor curves with flat parental cells got no call and are not listed
Target sequence (P16473 whole entry, looked up): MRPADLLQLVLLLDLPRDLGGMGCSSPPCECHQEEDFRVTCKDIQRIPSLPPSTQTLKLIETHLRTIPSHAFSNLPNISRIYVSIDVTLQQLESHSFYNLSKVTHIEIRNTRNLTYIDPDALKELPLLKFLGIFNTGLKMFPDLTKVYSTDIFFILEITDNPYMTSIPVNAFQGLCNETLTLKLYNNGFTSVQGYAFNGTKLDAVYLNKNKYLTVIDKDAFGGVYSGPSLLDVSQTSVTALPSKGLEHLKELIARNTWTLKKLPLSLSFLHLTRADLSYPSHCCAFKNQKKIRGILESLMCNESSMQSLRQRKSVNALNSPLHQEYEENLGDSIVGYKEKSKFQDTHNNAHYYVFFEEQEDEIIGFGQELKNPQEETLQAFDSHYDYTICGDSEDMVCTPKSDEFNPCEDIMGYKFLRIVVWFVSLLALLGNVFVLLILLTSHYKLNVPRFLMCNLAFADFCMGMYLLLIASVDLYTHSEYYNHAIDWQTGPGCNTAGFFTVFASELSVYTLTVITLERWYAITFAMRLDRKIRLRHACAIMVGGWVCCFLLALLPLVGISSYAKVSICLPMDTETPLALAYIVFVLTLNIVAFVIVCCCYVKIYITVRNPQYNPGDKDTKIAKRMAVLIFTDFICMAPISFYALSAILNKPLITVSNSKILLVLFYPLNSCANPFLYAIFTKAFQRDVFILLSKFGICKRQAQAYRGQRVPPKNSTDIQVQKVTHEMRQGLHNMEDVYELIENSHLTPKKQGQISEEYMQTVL
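HEK 293 cells stably expressing TSHR and a modified CNG channel, with CNG-only parental cells as counterscreen, were preloaded 60 min at room temperature with membrane potential dye containing 100 uM RO 20-1724. Compound exposure was 30 min, and depolarization was read as fluorescence at 590 nm.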
The depositor's hits bear a star; i = inactive; u = inconclusive; x = not tested or not shown; [ ] = dose if it differs, or a comment. Only part of the results is shown; rates above refer to the full screens.

SMILES	Resorufin autofl	A647 autofl	AID923	A488 fluor	TSHR ag
O=c1c(-c2ccc(F)cc2)coc2c3c(ccc12)OCCO3	i	4.4e-09	-1.1%	i	-3%
COc1ccc2cc(CN(CCc3ccccc3)Cc3nnnn3CC3CCCO3)c(=O)[nH]c2c1 (stereo not drawn)	i	4.6e-08	1.3%	i	-6%
COc1ccc(C)cc1-n1nnnc1SCn1nnc2ccccc2c1=O	i	1e-09	3.3%	i	u
S=c1nc(-c2ccccc2)n(Cc2ccco2)c2c1CCCC2	x	x	0.6%	x	5µM*
Cc1cccc(C)c1NC(=O)N1C2CCCC1CC(NC(=O)C(C)(C)C)C2 (stereo not drawn)	i	1e-09	1.5%	i	-3%
NS(=O)(=O)c1ccc(CCNC(=O)C2CCCN2C(=O)OCc2ccccc2)cc1 (stereo not drawn)	i	1e-09	1.8%	i	u
CCn1c(N2CCN(CC(=O)c3ccc(OC)cc3)CC2)nc2ccccc21	i	1e-09	2.1%	i	13%
CCCCCNCCCCC	x	x	3.3%	x	u
CC(C)CCn1c(CN(C)Cc2ccccc2)nc2c1c(=O)n(C)c(=O)n2C	i	4.3e-08	-0.1%	i	8%
Cc1cc(N2CCC(C(=O)NC3CCCCC3)CC2)nc(-c2ccccc2)n1	i	6.3e-09	-2.0%	i	x
COc1cccc(OC)c1/C(O)=C(\C#N)c1nc2ccccc2[nH]1	i	3e-09	3.8%	i	13%[11.4 µM]
Cc1nc(SCC(=O)c2c(C)[nH]c3ccccc23)c2c(=O)n(C)c(=O)n(CC(C)C)c2n1	i	9.8e-09	-1.4%	i	12%
COC(=O)c1ccc(OCC(O)CN2C(=O)NC(C)(C)C2=O)cc1 (stereo not drawn)	x	x	1.2%	x	-3%
Cc1nc2ccc(N3C(=O)CCC3=O)cc2[nH]1	x	x	1.6%	x	1%
CCOC(=O)NC(=O)CSc1nc2ccc(OCC)cc2[nH]1	i	1e-09	1.5%	i	-6%
CCCN1Cc2cccc(C(=O)Nc3ccc(CN4CCCC4)cc3)c2C1=O	i	2.2e-08	-0.2%	i	u
Cc1ccc(C2c3sc(=O)[nH]c3SC3C(=O)NC(=O)C32)cc1 (stereo not drawn)	i	1e-09	1.3%	i	-4%
N#Cc1cc(N)c(Nc2ccccc2)cc1C#N	i	1.5e-09	-2.0%	i	-16%
CCn1ccnc1C(O)c1ccc(N(C)C)cc1 (stereo not drawn)	i	1.2e-09	0.9%	i	3%
CCOC(=O)c1c(C)n(OCc2ccccc2)c2ccc3c(no[n+]3[O-])c12	x	x	-1.2%	x	u
Cc1ccc(C)c(C(=O)NC2CC(C)(C)NC(C)(C)C2)c1	i	1e-09	5.0%	i	-8%
Cc1cc(C)c(NC(=O)c2ccc(S(=O)(=O)N(C)C)cc2)c(C)n1	i	4.6e-09	1.6%	i	1%
CCOc1cc(-c2nc3ccccn3c2NCC2CCCO2)ccc1O (stereo not drawn)	i	1e-09	19%	i	-4%
Cc1cc(C)nc(NS(=O)(=O)c2ccc(NC(=O)C3CC(=O)N(c4ccccc4)C3)cc2)n1 (stereo not drawn)	x	x	2.7%	x	6%[11.4 µM]
CCOc1ccc(-c2[nH]ncc2-c2ccc(OC)c(OC)c2)c(O)c1	i	1e-09	-3.2%	i	1%
CC(C)Oc1ccc(C(=O)N2CCCC2C(=O)O)cc1 (stereo not drawn)	i	1e-09	0.3%	i	0%
C1CCC(c2nn3c(-c4n[nH]c5c4CCC5)nnc3s2)CC1	i	1.2e-09	-1.0%	i	u
Cc1noc(C)c1CSCC(=O)N1CCN(c2ccc(F)cc2)CC1	i	1e-09	2.0%	i	u
CN1CCN(S(=O)(=O)c2cccc(C(=O)N(c3ccccn3)C3CCCCC3)c2)CC1	i	1.5e-09	-1.9%	i	1%
Cc1ccc(C)c2[nH]c(=O)c(CN(CCN3CCCC3)C(=O)Nc3ccc(F)cc3)cc12	i	1.3e-08	0.8%	i	u
COc1ccc(C(=O)NC(C)c2nc3ccccc3[nH]2)cc1OC (stereo not drawn)	i	4.9e-09	-1.0%	i	2%[11.4 µM]
CCn1c(COc2ccccc2C)nnc1SCC(=O)NCc1ccccc1	i	7.2e-08	1.3%	i	10%
Cc1cc(C)n(S(=O)(=O)/C=C/c2ccccc2)n1	i	8.7e-08	x	i	x
CCC(C)Sc1nc2c([nH]c3ccccc32)c(=O)n1C (stereo not drawn)	x	x	0.1%	x	-2%
COc1ccc(-n2nc(C(=O)NCc3ccco3)c3c4ccccc4n(C)c3c2=O)cc1	i	2.7e-08	0.8%	i	u
Cc1cc(Cc2cc(C)cc(C(C)(C)C)c2O)c(O)c(Cc2cc(C)cc(C(C)(C)C)c2O)c1	i	1e-09	0.2%[11.5 µM]	i	7%[11.4 µM]
CCCN(C(=O)c1ccccc1N)c1c(C)n(C)n(-c2ccccc2)c1=O	x	x	0.5%	x	13%[11.4 µM]
CCCn1c(=N)n(CC(O)COc2cccc(C)c2)c2ccccc21 (stereo not drawn)	i	1e-09	2.4%	i	u
CC(C(=O)N=c1sc2ccccc2n1C)N1C(=O)C2CC=CCC2C1=O (stereo not drawn)	i	2.5e-09	0.6%	i	12%
COc1ccc(CNC(=O)C(C)OC(=O)c2cccn2C)cc1 (stereo not drawn)	i	2.6e-09	0.9%	i	4%
COc1ccc(NC(=O)CSc2nc3c(c(=O)n2-c2ccc(C)cc2)SCC3)c(OC)c1	i	1e-09	0.3%	i	7%[11.4 µM]
NS(=O)(=O)c1ccc(NC(=O)CSc2nnc(-c3cnccn3)n2-c2ccccc2)cc1	i	1.7e-08	-0.9%	i	0%
CC(=O)OC(C#CCN1CCOCC1)c1ccccc1 (stereo not drawn)	x	x	2.7%	x	-8%
O=C(Nc1ccc2c(c1)OCCO2)C1CCN(S(=O)(=O)c2cccs2)CC1	i	1e-09	1.1%	i	-4%
Cc1ccc(C(=O)CSc2nnc(CNc3nc(-c4ccccc4)cs3)n2C)cc1	i	6.2e-08	-0.3%	i	24%
COc1ccc(S(=O)(=O)N2C3CCC2CC(NC(=O)C2CC2)C3)cc1 (stereo not drawn)	i	6.2e-08	-1.3%	i	-13%
COc1cccc(N2CCN(c3ncnc4c3[nH]c3ccc(F)cc34)CC2C)c1 (stereo not drawn)	i	5.3e-08	x	i	x
CN1CCN(CCNC(=O)c2cc3c(=O)n(C)c4ccccc4c3n2C)CC1	x	x	2.5%	x	2%
Cn1c(SCC(=O)c2ccc(F)cc2)nnc1-c1cnccn1	i	1e-09	0.8%	i	5%
Cc1cccc(C)c1NC(=O)Cn1cnc2c(=O)n(C)c(=O)n(C)c21	i	1.8e-09	-1.5%	i	6%

Next section
SMILES	Resorufin autofl	A647 autofl	AID923	A488 fluor	TSHR ag
O=C(O)c1ccc(Cl)c(S(=O)(=O)N2CCCCCC2)c1	i	2.6e-08	-1.3%	i	3%
O=C(Cn1cnc2c(nnn2Cc2ccc(F)cc2)c1=O)N1CCCc2ccccc21	i	5.1e-09	0.0%	i	7%
CCCCC(CC)COC(=O)COc1ccc(Cl)cc1Cl (stereo not drawn)	x	x	1.7%	x	9%
CCOC(=O)c1c(C)[nH]c2ccc(O)cc12	i	9.6e-09	-0.6%	i	-9%
O=C(NCc1ccco1)C(c1ccc(F)cc1)N(Cc1cccnc1)C(=O)Cn1nnc2ccccc21 (stereo not drawn)	i	1e-09	-2.0%	i	11%
CCN(CC)c1ccc(NC(=O)c2ccc(NC(=O)C3CCCO3)cc2)c(C)c1 (stereo not drawn)	i	5e-09	0.3%	i	0%[11.4 µM]
CCOC(=O)c1ccc(CNC(=O)C(Cc2c[nH]c3ccccc23)NC(C)=O)o1 (stereo not drawn)	i	8.1e-09	-2.7%	i	-2%
Fc1ccc(-c2nnc3ccc(N4CCc5ccccc5C4)nn23)cc1	x	x	1.0%	x	29%
Cc1ccc(OCC(=O)Nc2ccc(-c3nnc(-c4ccco4)o3)cc2)cc1	i	1e-09	-0.4%	i	14%
CCOCCc1nnc(NC(=O)Cc2ccccc2)s1	i	1.6e-08	0.1%	i	-2%
O=C(c1ccco1)N1CCN(S(=O)(=O)c2cccs2)CC1	i	1e-09	-0.5%	i	3%
O=C(Nc1ccccc1N1CCOCC1)c1ccc2ccccc2n1	i	3.8e-08	-0.8%	i	u
O=C(CSc1nnc(CNC(=O)c2cccs2)o1)NC1CCCCC1	i	1.8e-08	1.5%	i	0%[11.4 µM]
CCn1c(C(C)NC(C)=O)nc2ccccc21 (stereo not drawn)	x	x	3.0%	x	1%
O=C(Nc1ccc(OC(=O)c2ccncc2)cc1)c1ccncc1	i	3.4e-08	-1.3%	i	4%
C=CCNC(=O)C1CC=CCC1C(=O)O (stereo not drawn)	x	x	0.5%	x	1%
O=C(C1CC(=O)N(C2CCCC2)C1)N1CCC(Cc2ccccc2)CC1 (stereo not drawn)	i	9.3e-09	-1.4%	i	22%
COc1ccc(Cn2nnc3c(=O)[nH]c(C(=O)NCCc4ccc(F)cc4)nc32)cc1OC	x	x	3.7%	x	23%
COc1cc(NC(=O)c2ccc(Br)o2)ccc1NC(=O)C(C)C	i	2.2e-08	-0.9%	i	u
CC(=O)Cc1nsc(NC(=O)C2Cc3ccccc3C(=O)O2)n1 (stereo not drawn)	x	x	3.5%	x	u
O=C(O)C1C2C=CC(C2)C1C(=O)NCc1ccoc1 (stereo not drawn)	i	3e-09	1.0%	i	u
Cc1ccc(-n2c(Cc3cccn3C)nnc2SCC(=O)NC2CCCCC2)cc1	i	1.9e-09	0.4%	i	0%
CS(=O)(=O)N1CCC(C(=O)Nc2ccc(OCc3ccccc3)cc2)CC1	i	1e-09	-0.2%	i	5%
Cc1c(C(=O)NCCCN2CCOCC2)sc2nc(-c3ccccc3)cn12	x	x	-1.6%	x	26%
Cc1nnc(SCC(=O)c2cc(C)n(-c3ccc4c(c3)OCO4)c2C)s1	i	1.5e-09	-0.8%	i	u
Cn1c(=O)c2c(nc(Br)n2CCCc2ccccc2)n(C)c1=O	i	1e-09	0.9%	i	26%
O=C(COCc1nc2ccccc2c(=O)[nH]1)NC1CCCC1	i	1e-09	0.1%	i	u
C[N+]1(C)CCO[C@](O)(c2ccccc2)C1	i	1e-09	-0.1%[11.5 µM]	i	1%[11.4 µM]
CC(=O)N(C(C)=O)c1c(C#N)c(C)n(-c2ccccc2)c1C(=O)c1ccccc1	i	2.2e-08	-0.2%	i	4%
O=C(NC1CCCC1)C1CCCN1C(=O)Nc1ccc(Cl)cc1 (stereo not drawn)	i	1.5e-09	0.5%	i	-1%
O=C(NCCc1ccc(Cl)cc1)c1ncn[nH]1	i	1e-09	-3.3%	i	5%
